NS1 inh – inhibitors of influenza NS1 protein function; 0.4% of 270,000 active; Potency, µM (titrated, usually from 46.1 µM), inactives show at the highest dose activity, positive = more growth; S. cerevisiae slowed by influenza A NS1, growth recovery by OD600; further: actives are rising curves; nearly all actives have a fitted effect of over 50% in size
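S. cerevisiae expressing influenza A NS1, grown in glucose, washed, then diluted 1:100 into pH 6.0 -URA galactose medium with 23 nl compound. Growth recovery read as OD600; NS1-free strain serves as control.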
Cruzain inh noDet – cruzain (T. cruzi) inhibition without detergent | P25779 | purified cruzain, Z-FR-AMC fluorescence, no detergent | Potency, µM, inactives show max response, negative = inhibition, usual class: inhibitors | 2.3% of 200,000 active | AID 1476; active means well fitted curve in the direction sought with a large enough effect; inconclusive means small, poorly fitted or top-dose-only effect, or another doubt; inactive means no such curve, though single readings can be large; an effect the other way counts as inactive or inconclusive;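 further: plate controls were enzyme without inhibitor for no effect and buffer without enzyme for full effect; nearly all actives have a fitted effect of over 40% in size; top concentration of the series not given in the record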
Target sequence (P25779 123-467 limits assumed): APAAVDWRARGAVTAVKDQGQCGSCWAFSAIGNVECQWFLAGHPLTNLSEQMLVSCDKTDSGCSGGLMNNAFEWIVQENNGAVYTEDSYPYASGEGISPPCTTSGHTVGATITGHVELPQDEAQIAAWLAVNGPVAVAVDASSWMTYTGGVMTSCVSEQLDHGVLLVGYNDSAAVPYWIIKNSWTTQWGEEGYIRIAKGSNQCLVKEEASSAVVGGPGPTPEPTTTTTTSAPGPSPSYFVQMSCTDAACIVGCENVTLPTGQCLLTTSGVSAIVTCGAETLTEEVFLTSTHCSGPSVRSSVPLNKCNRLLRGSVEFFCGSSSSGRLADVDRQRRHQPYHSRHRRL
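Detergent-free condition (0.00005% Triton X-100) in acetate buffer pH 5.5 with DTT. 1.5 nM enzyme and compound were pre-mixed 15 min, then 2 uM Z-FR-AMC substrate added; reaction progress from fluorescence change between first and third reads (60 s).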
SARS PLpro yeast – blocks SARS-CoV papain-like protease in a yeast assay; S. cerevisiae expressing SARS-CoV PLpro, growth rescue; control for the full effect not named in the record; Potency, µM (highest dose often 32.9 µM), for inactives: at the highest dose activity, positive = growth rescue; 0.19% of 330,000 active; further: 0% is about no effect; nearly all actives have a fitted effect of over 55% in size; growth read by luminescence after 48 h
Lassa entry inh – Lassa virus entry inhibition; Potency, µM (titrated, usually from 37.9 µM), without a hit: at the top dose activity change, negative = inhibition, most hits filed as inhibitors; Lassa virus pseudotype entry inhibition, cell reporter; control for the full effect not named in the record; 1.2% of 300,000 active; active means well fitted inhibition curve with a large enough effect; inconclusive means small, poorly fitted or top-dose-only effect, or effect the other way; inactive means flat fitted curve, though single readings scatter; tested in HEK293 cells; further: on the % scale 0 is the no-effect control and ±100 the full control effect; nearly all actives have a fitted effect of over 50% in size; luciferase read-out
MARV entry inh – blocks Marburg virus binding to or entry into cells; Marburg virus pseudotyped entry inhibition, cell reporter; control for the full effect not named in the record; about a third of the inactives were read at about 46 µM; Potency, µM (titrated, usually from 37.8 µM), for inactives: at the highest dose activity change, negative = inhibition, usual class: inhibitors; 1.8% of 300,000 active; active = well fitted inhibition curve with a large enough effect; inconclusive = small, poorly fitted or top-dose-only effect, or effect the other way; inactive = flat fitted curve, though single readings scatter; tested in HEK293 cells; about a fifth of its hits are not listed in these tables; further: on the % scale 0 is the no-effect control and ±100 the full control effect; luciferase read-out
StopGo reporter – FMDV 2A StopGo reporter, luciferase signal; human cells with a luciferase reporter of 2A StopGo recoding; control for the full effect not named in the record; Potency, µM (titrated, usually from 57.9 µM), inactives show at the top dose signal change, negative = less light; 1.2% of 410,000 active; AID 1159524; active = well fitted falling curve with a large enough effect; inconclusive = small, poorly fitted or top-dose-only effect; inactive = no such curve, though single readings can be large or run the other way; tested in HEK293T cells; further: on the % scale 0 is the no-effect control and ±100 the full control effect; nearly all actives have a fitted effect of over 45% in size; luciferase light after 4 h
RE007 growth inh – less growth of the S. pombe RE007 Vpr strain; S. pombe RE007 Vpr strain, BacTiter-Glo ATP luminescence, 24 h; control for the full effect not named in the record; Potency, µM (doses to about 92.2 µM), for the others: at the highest dose activity change, negative = less growth; 0.21% of 360,000 active; AID 651644; active = well fitted falling curve with a large enough effect; inconclusive = small, poorly fitted or top-dose-only effect; inactive = no such curve, though single readings can be large or run the other way;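 further: on the % scale 0 is the no-effect control and ±100 the full control effect; nearly all actives have a fitted effect of over 50% in size; the assay follows cell death caused by Vpr and the record does not say whether a fall means rescue or toxicity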
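Fission yeast RE007 carrying one integrated HIV-1 vpr copy, seeded at OD 0.01 in PMG+AL medium with 23 nL pinned compound. Grown 24 h at 30 degrees; viability read by BacTiter-Glo luminescence after 5 min.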
Cruzain Triton – cruzain (T. cruzi) inhibition with detergent. P25779. purified cruzain, Z-FR-AMC fluorescence, 0.01% Triton. Potency, µM, for inactives: max response, negative = inhibition, most hits filed as inhibitors. 0.43% of 200,000 active; active means well fitted curve in the direction sought with a large enough effect; inconclusive means small, poorly fitted or top-dose-only effect, or another doubt; inactive means no such curve, though single readings can be large; an effect the other way counts as inactive or inconclusive;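 further: plate controls were neutral wells for no effect and buffer without enzyme for full effect; nearly all actives have a fitted effect of over 40% in size; top concentration of the series not given in the record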
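Enzyme 1.5 nM, Z-FR-AMC 2 uM, NaOAc 100 mM pH 5.5, DTT 5 mM, Triton X-100 0.01%; 15 min RT compound preincubation; kinetic ex360/em450, 60 s delta.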
Numbers without * were called inactive; u = inconclusive; x = not tested or not shown; & = joins results of further samples; [ ] = dose if it differs, or a comment. Unless noted, the call rests on the fitted dose curve; in most records, active means well fitted rising curve with a large enough effect; inconclusive means small, poorly fitted or top-dose-only effect; inactive means no such curve, though single readings can be large or run the other way. Potency means the concentration at half of the fitted maximal effect.

SMILES	NS1 inh	Cruzain inh noDet	SARS PLpro yeast	Lassa entry inh	MARV entry inh	StopGo reporter	RE007 growth inh	Cruzain Triton
CC1CN(C(=O)CCCN2C(=O)c3ccccc3C2=O)CC(C)O1 (stereo not drawn)	-2%	x	0%	x	x	8%	9%	x
COC(=O)NNS(=O)(=O)c1ccc(C)cc1	-4%	-7%	-5%	16%	4%	-9%	-4%	-1.0%
O=C(O)c1ccc2noc(-c3ccccc3)c2c1	-1%	-5%	-5%	u	14%	18%	-8%	-1.6%
CCOC(=O)N1CCN(CCC(=O)Nc2cccc(C)c2)CC1	-13%	x	-9%	-5%	10%	0%	-7%	x
Cc1ccc2c(O)c(Cc3ccccc3)c(=O)[nH]c2n1	x	x	x	14%[46.1 µM]	7%[46.1 µM]	-5%	-4%	x
CCOC(=O)c1c(C)[nH]c(C(=O)NNC(=O)c2ccccc2F)c1C	x	x	-6%	u	-24%	30%	2%	x
Cc1c(C)n(Cc2ccccc2)c2ncnc(NCCO)c12	5%	x	0%	0%[46.1 µM]	4%[46.1 µM]	-30%	15%	x
O=C(c1ccc([N+](=O)[O-])cc1)N1CCSC1c1cccc(Cl)c1 (stereo not drawn)	x	x	2%	8%	-2%[46.1 µM]	u	28%	x
O=S(=O)(NCc1ccco1)N1CCOCC1	-11%	-9%	4%	0%	2%	-8%	12%	4.6%
Cc1cc(C)cc(NC(=O)Cn2c(=O)n(CC(=O)NCCc3ccccc3)c(=O)c3ccccc32)c1	x	-4%	x	-24%[46.1 µM]	-15%[46.1 µM]	-28%	x	-0.4%
S=c1nc(-c2ccccc2)n(CCCn2ccnc2)c2c1CCCC2	-1%	-9%	1%	x	x	-23%	-2%	-3.5%
Cc1cc(C(=O)Nc2c(F)cc(F)cc2Br)no1	-50%	4%	0%	6%	10%	0%	10%	-5.7%
CCSc1ncc(Cl)c(C(=O)N(Cc2ccccc2)Cc2ccco2)n1	x	u	x	16%[46.1 µM]	2%[46.1 µM]	-15%	x	-1.9%
Cc1ccc(Cl)cc1N1CCN(c2cccc[n+]2C)CC1	-4%	-9%	-4%	1%	u	-21%	-15%	0.5%
CN(CC(=O)Nc1ccccc1Cl)C(=O)COC(=O)c1ccc(Cl)cc1[N+](=O)[O-]	-5%	x	-5%	6%	-17%	-14%	0%	x
CCOc1ccc(NC(=O)CN2CCN(Cc3c(F)cccc3F)CC2)cc1	-4%	x	1%	x	x	-7%	-9%	x
O=C(CSc1ncc2c(n1)-c1cc(Cl)ccc1N(Cc1ccccc1)S2(=O)=O)NCc1ccccc1	x	16µM*	x	-14%[46.1 µM]	x	-11%	x	-4.4%
COC1=C(C)C(=O)C2=C(C1=O)C(CO)N1C(C#N)C3CC4C(C1C2N1CCOC41)N3C (stereo not drawn)	x	x	x	x	u	u	11%	x
CCOP(=O)(OCC)C(Nc1cccc(C(F)(F)F)c1)c1ccc(Br)cc1 (stereo not drawn)	1%	3%	-82%	u	u	x	x	-8.1%
O=S(=O)(NC(=NC1CCCC1)C(F)(F)F)c1ccccc1	4%	-1%	4%	5%	u	-9%	-1%	-0.4%
COc1ccccc1NC(=O)CSc1nnc(Cn2cnc3ccccc32)n1C	1%	-8%	5%	6%	19%	0%	-2%	3.9%
CC1C(=O)N2CCCc3cc(NC(=O)C(=O)NCCc4c[nH]c5ccccc45)cc1c32 (stereo not drawn)	x	x	-7%	u	u	-14%	2%	x
Cc1ccc(NC(=O)Cn2nnc(C(=O)NCc3cccs3)c2N)cc1Cl	-8%	25µM*	-4%	0%&7%[46.1 µM]	-24%&-24%[46.1 µM]	-5%&-5%	9%	-0.6%
O=C(CCN1CCN(c2ccccc2)CC1)NNC(=O)Cc1c(F)cccc1Cl	x	x	2%	10%	9%	-13%	-5%	x
Cc1ccc(C)c(NC(=O)CSc2ccc(-c3cccs3)nn2)c1	7%	u	23%	u	7%	-13%	5%	-3.1%
Cc1ccc(CSc2ncnc3c2cnn3-c2ccccc2)cc1	-5%	-16%	7%	-5%	-6%	-12%	11%	-0.3%
Cn1c(COc2cccc3ccccc23)nnc1SCC(=O)OC1CCCCC1	-7%	x	0%	x	x	-3%	10%	x
O=C(CN1CCC(n2nnc3cc(F)ccc32)CC1)N1CCc2ccccc2C1	-10%	1%	-1%	-7%	u	x	7%	3.5%
COc1ccc(OC)c(C2C(C(N)=O)=C(C)Nc3nc(CCCO)nn32)c1 (stereo not drawn)	3%	0%	6%	x	x	-19%	-3%	0.1%
CC1Cc2nc(SCC(=O)Nc3nc4ccccc4s3)n(C)c(=O)c2S1 (stereo not drawn)	-12%	u	-22%	x	x	u	-9%	-9.4%
Cc1nn2cnnc2c(C)c1Cc1c(F)cccc1Cl	2%	x	2%	5%	u	-13%	38%	x
CC(=O)CCn1cc([N+](=O)[O-])nc1C	6%	x	0%	-19%[46.1 µM]	23%[46.1 µM]	-12%	4%	x
O=C(COc1cc(F)ccc1[N+](=O)[O-])NCCCc1ccccc1	x	x	-8%	-1%	1%[46.1 µM]	-19%	26%	x
CC(NC1CCCC1)c1ccccc1 (stereo not drawn)	0%	x	1%	u	8%[46.1 µM]	11%	4%	x
COc1ccc(CCNC(=O)CN(c2ccccc2)S(=O)(=O)N(C)C)cc1	x	-5%	x	0%[46.1 µM]	u	-22%	x	-0.9%
O=C(Nc1cccc([N+](=O)[O-])c1)NC1CCS(=O)(=O)C1 (stereo not drawn)	-2%	x	14%	x	x	-6%	0%	x
O=C(N/N=C/c1ccc(O)cc1O)/C(=C/c1ccccc1)CCO	-1%	5%	u	u	u	26%	-2%	-8.4%
O=C(CCN1C(=O)/C(=C/c2ccc3c(c2)OCO3)SC1=S)Nc1cccc(C(=O)O)c1	15%	x	2%	u	-2%	53%[activator]	5%	x
O=C1OCc2cccc3cccc1c23	-15%	-8%	u	6%	-15%	7%	10%	-6.4%
CCOc1cc(C)c(S(=O)(=O)N2CCCC2)cc1C	-2%	0%	-14%	11%	-15%	-16%	3%	-5.2%
CN(C)c1ccc(/C=C(\NC(=O)c2ccccc2)C(=O)NCc2ccncc2)cc1	-2%	x	4%	4%	0%[46.1 µM]	-8%	-19%	x
CCN1CCC(NCCc2ccc(F)cc2)CC1	8%	x	1%	x	x	-10%	-3%	x
O=C(CSc1nc(-c2ccc(F)cc2)cs1)Nc1ccccn1	14%	-9%	0%	15%	u	-16%	11%	-1.3%
O=C(NC1CCS(=O)(=O)C1)C12CC3CC(CC(C3)C1)C2 (stereo not drawn)	0%	-3%	7%	-11%	18%	x	-2%	2.2%
Cc1cccc(/C=N\Nc2cn[nH]c(=O)c2Cl)c1	-6%	-22%	-9%	35%[14.3 µM]	-22%	37%[activator]	2%	-4.6%
OC(c1ccccc1)(C1CCCCC1)C(CN1CCOCC1)c1ccccc1 (stereo not drawn)	-10%	x	-4%	-8%[46.1 µM]	u	u	1%	x
O=C(CC1(O)C(=O)Nc2ccc(Br)cc21)c1ccc2c(c1)OCO2 (stereo not drawn)	-1%	-9%	1%	-21%	6%	32%[activator]	-13%	-2.7%
CN(C)S(=O)(=O)N1CCCC(C(=O)c2ccc(C(F)(F)F)cc2)C1 (stereo not drawn)	0%	x	1%	-25%	u	u	-1%	x
Cc1ccc2c(c1)N(CCC(=O)NCc1cccnc1)C(=O)CO2	0%	7%	1%	12%	-15%	19%	-14%	4.4%
Cc1c(Cl)cccc1NC(=O)CSc1nnc(C)n1CC1CCCO1 (stereo not drawn)	0%	x	0%	-7%	7%	9%	6%	x
CC(OC(=O)Cc1c[nH]c2ccccc12)C(=O)NC1(C#N)CCCCC1 (stereo not drawn)	-17%	x	0%	x	x	-10%	0%	x
Brc1ccc(-c2csc(-c3nc(-c4ccc(Br)s4)cs3)n2)cc1	x	6%	x	28%[46.1 µM]	x	-15%	x	-2.1%
O=C(Nc1cccnc1Cl)C1=NN(c2ccccc2)C(=O)CC1	-24%	x	-2%	1%[46.1 µM]	u	-17%	11%	x
O=C(Nc1ccccc1)c1ccccc1NC(=O)[C@H]1CCCC[C@H]1C(=O)O	12%	x	5%	x	x	-26%	3%	x
COc1ccccc1NC(=O)NC1(C(=O)N2CCOCC2)CCCCC1	-4%	x	2%	-14%[46.1 µM]	-11%[46.1 µM]	-14%	4%	x
COc1ccc(-c2csc3nc(-c4ccccc4F)oc(=O)c23)cc1	-3%	x	0%	4%	u	-23%	16%	x
COc1ccc(NC(=O)c2ccccc2NS(=O)(=O)c2ccc(CNC(C)=O)cc2)c(OC)c1	7%	x	-2%	-16%	u	11%	1%	x
COCc1nnc(NC(=O)c2ccc(S(=O)(=O)N3CCCC3)cc2)o1	u	x	7%	15%	26%	-4%	0%	x
O=C(Nc1ccc(CN2CCOCC2)cc1)c1cc(Cl)ccc1Cl	4%	x	-3%	x	x	7%	3%	x
O=C1C=C(N2CCOCC2)C2(CCCCC2)O1	-4%	x	-2%	u	18%	-9%	-15%	x

New compounds follow.
SMILES	NS1 inh	Cruzain inh noDet	SARS PLpro yeast	Lassa entry inh	MARV entry inh	StopGo reporter	RE007 growth inh	Cruzain Triton
COc1ccc(Cc2nc3ccc(C(=O)NCC4COCCO4)cc3o2)cc1OC (stereo not drawn)	-10%	x	-2%	x	x	-22%	-5%	x
COC(=O)c1ccc(NC(=O)CSc2nc(=O)n3cccc(C)c3n2)cc1	x	x	1%	x	-2%	-24%	-2%	x
Cc1ccc(N(CC(=O)N2CCCC2)S(C)(=O)=O)cc1C	-5%	x	-2%	-1%	-13%	-6%	-8%	x
Cc1cc(C)nc(NS(=O)(=O)c2ccc(NC(=O)C3COc4ccccc4O3)cc2)n1 (stereo not drawn)	-1%	x	1%	-1%[46.1 µM]	5%[46.1 µM]	38%[activator]	9%	x
Cc1cccc(NC(=O)N2CCN(Cc3ccccc3)CC2)c1	-6%	-14%	7%	3%	22%	29%	-3%	2.1%
O=CN1CCN(C(=O)c2ccc(-c3nc4ccccc4s3)s2)CC1	x	x	1%	-28%	u	-11%	3%	x

Assay outcomes (PubChem)
